HPGD block = qHTS Assay for Inhibitors of HPGD (15-Hydroxyprostaglandin Dehydrogenase). 150,000 tested, 4.3% active. AID 894, 2007. 15-hydroxyprostaglandin dehydrogenase [NAD(+)] (Homo sapiens), P15428. Potency, µM, for inactives: top-dose activity change, negative = inhibition, usual class: inhibitors. purified HPGD, NADH fluorescence kinetic, PGE2 substrate; active = well fitted inhibition curve with a large enough effect (not every such curve was filed as active); inconclusive = small, poorly fitted or top-dose-only effect, or another doubt; inactive = no such curve, though single readings can be large or run the other way;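 further: top concentration of the series not given in the record; plate controls included wells without enzyme; inactives centre near -10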
Target sequence (P15428 whole entry, looked up): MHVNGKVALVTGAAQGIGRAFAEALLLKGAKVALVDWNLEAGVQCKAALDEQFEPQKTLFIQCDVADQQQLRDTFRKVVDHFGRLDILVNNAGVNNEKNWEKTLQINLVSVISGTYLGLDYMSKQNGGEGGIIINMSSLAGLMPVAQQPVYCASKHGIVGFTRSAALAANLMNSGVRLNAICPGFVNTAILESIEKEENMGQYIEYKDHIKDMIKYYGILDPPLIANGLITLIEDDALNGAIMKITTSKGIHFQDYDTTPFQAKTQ
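20 nM HPGD preincubated 15 min at room temperature with compound in 50 mM Tris-HCl pH 8, 0.01% Tween 20. Started with 1 mM NAD+ and 30 uM prostaglandin E2; NADH fluorescence (360/450 nm) read 5 times over 30-s intervals, last minus first.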
Numbers without * were called inactive; ? = inconclusive; & = joins results of further samples. On the % scale 0 is the no-effect control and ±100 the full control effect; potency means the concentration at half of the fitted maximal effect. A portion of the library, so the mix of outcomes need not match the whole.

HPGD block,Molecule
28µM*,O=C(CCn1nc(-c2ccccc2)c2ccccc2c1=O)NCC1CCCO1 (configuration not stated)
-5%,CCCc1nnc(NC(=O)C(CC)OC(=O)c2cc(C)nc3ccccc23)s1 (configuration not stated)
-9%,CCN(CC)CCNC(=O)/C(=C\c1cccn1C)NC(=O)c1cccs1
-8%,O=[N+]([O-])c1ccc2[nH]c(O)c(N=NC(=S)NCC3CCCO3)c2c1 (configuration not stated)
-3%,CCOc1ncccc1C(=O)OCC(=O)Nc1cc(C)ccc1C
-23%,CCCC(C(=O)NC1CCCC1)N(CC1CCCO1)C(=O)c1snc(C(N)=O)c1N (configuration not stated)
-5%,Cc1nn(C)c(N)c1C(O)(c1nccn1C)C(F)(F)F (configuration not stated)
-4%,O=C(NNC(=S)NC(=O)c1cccnc1)c1ccc(Cl)cc1
-10%,O=C(Nc1sccc1C(=O)N1CCOCC1)c1cccnc1
-3%,Cc1ccc2[nH]c(=O)cc(C(=O)OCC(=O)c3ccccc3)c2c1
?,CCCc1c(C)[nH]c2ccc(NC(C)=O)cc2c1=O
-5%,O=C(CN(C(=O)CSc1nc2ccccc2o1)c1ccccc1F)NC1CCCCC1
?,COCCN1C(=O)C(O)=C(C(C)=O)C1c1ccc(F)cc1 (configuration not stated)
-22%,Cc1cc(N(CC(=O)NC(C)C)S(C)(=O)=O)ccc1Br
-19%,CCOC(=O)C1CCCN(c2c(NCCCN(C)Cc3ccccc3)c(=O)c2=O)C1 (configuration not stated)
-11%,CC1=c2c(oc3cc(O)c(Nc4c(C)cc(O)cc4O)c(C)c23)=CC(=O)C1=Nc1c(C)cc(O)cc1O
-4%,CS(=O)(=O)N1CCN(C(=O)c2cc(-c3ccccc3)nc3ccccc23)CC1
-10%,O=C(OCCCN1CCCCC1)c1ccc(O)cc1
-6%,O=C(COc1ncnc2c(Cl)cc(Cl)cc12)N1CCCCC1
-9%,COc1ccc(C/C(C)=N/NC(=O)c2cccnc2)cc1
0%,COc1ccc(NC(=O)N2CC3(CCN(C(C)=O)CC3)C2)cc1
-8%,CCOC(=O)C1CCCN(c2c(NCCCN(CC)c3ccccc3)c(=O)c2=O)C1 (configuration not stated)
1%,CCC1=C2CC[C@H]3C(=O)N(CC)C(=O)[C@H]3[C@H]2[C@@]2(Cc3ccccc3)C(=O)N(CCOC)C(=O)N2C1=O
-27%,Cc1ccc(NC(=O)COC(=O)CCc2c[nH]c3ccccc23)cc1[N+](=O)[O-]
-5%,O=C(NCCCN1CCOCC1)c1ccc(S(=O)(=O)N2CCOCC2)cc1
-8%,CCC(=O)Nc1ccc(C(=O)CSc2nnc(CNc3ccc(Cl)cc3)o2)cc1OC
2%&-3%,O=C(COc1ccc(Cl)cc1)N1CCN(Cc2ccc3c(c2)OCO3)CC1
?,CCCCn1c(NC(=O)c2ccco2)c(S(=O)(=O)c2ccc(C)cc2)c2nc3ccccc3nc21
-5%,COc1ccc(NC(=O)CCC(=O)N(Cc2ccc(OC)c(OC)c2)c2nccs2)cc1
2%,C=CC(=O)NC(C)(C)Cc1ccccc1
-6%,CC1CCCN(c2nc3c(c(=O)n(C)c(=O)n3C)n2Cc2ccccc2)C1 (configuration not stated)
-24%,CCNC(=S)NS(=O)(=O)c1ccc(Cl)cc1
-16%,COc1ccc(NC(=S)NCCc2ccc(Cl)cc2)c(OC)c1
-8%,COCCCNC(=O)c1ccc(Cn2c(=O)c3ccccc3n(Cc3cc(C)ccc3C)c2=O)cc1
?,Cc1cccn2c(=O)c3cc(C#N)c(=O)n(CC4CCCO4)c3nc12 (configuration not stated)
-8%,C=CCNc1nc(Cl)nc(Nc2ccc(OCC)cc2)n1
-17%,CSCc1c(C(=O)Nc2ccc(N3CCOCC3)cc2)oc2ccccc12
-11%,Cc1nn(Cc2ccccc2)c(C)c1NC(=O)CSc1nc2c(c(C(F)(F)F)n1)CCc1ccccc1-2
-6%,COc1cccc(C2=NOC(C(=O)NCC3CCCO3)C2)c1 (configuration not stated)
4.5µM*,O=c1[nH]c(SCc2ccc(Cl)cc2)nc2c1CCC2

As entered above.
HPGD block result of O=C(COc1ccc(Cl)cc1)N1CCN(Cc2ccc3c(c2)OCO3)CC1 : 2%&-3%
HPGD block result of CSCc1c(C(=O)Nc2ccc(N3CCOCC3)cc2)oc2ccccc12 : -17%

Further structures
HPGD block,Molecule
-9%,CCCn1c(C)nc2c(N(CCN(C)C)Cc3ccccc3)nc(C)nc21
-6%,Nc1ccc2c(c1)C(=O)Cc1ccccc1S2
?,COc1ccc(C(=O)CCC(=O)N2CCN(c3ccc(N4CCOCC4)nn3)CC2)cc1
?,CCCCOc1ccccc1C1C(C(=O)OC)=CN(CC)C=C1C(=O)OC
-5%,COc1ccc(NCc2nnc(SCC(=O)Nc3ccccc3OC)o2)cc1
-17%,Cc1ccc(CC(CC(=O)NCCc2ccc3c(c2)OCO3)C(=O)O)cc1 (configuration not stated)
-14%,CCOC(=O)C1=C(C)NC(=O)NC1c1ccoc1 (configuration not stated)
?,COc1ccc(C(=O)/C=C/Nc2ccc(S(=O)(=O)Nc3ncccn3)cc2)cc1
-10%,CCOc1ccc(S(=O)(=O)n2c(C)nc3ccccc32)cc1
-21%,COc1cccc(Nc2nc(CC(C)=O)ns2)c1
-27%,COc1ccc(C(=S)N2CCCC2)cc1
-10%,COc1ccc(/C=N/NC(=O)CSc2ccccc2)cc1OC
-6%,CN(c1ccccc1C(=O)N1CCCC1)S(C)(=O)=O
-3%,Cc1ccc(C2=[N+]([O-])C(C)(C)CC2)cc1
22µM*,Cc1ccc(O)c(C(=O)CC(=O)c2cccc(F)c2)c1
0%,CC(C)C[C@H](NC(=O)C1(c2ccccc2)CCN(C(=O)[C@H]2CSCN2C(=O)OC(C)(C)C)CC1)C(=O)O
-15%,O=C(O)CCC1=C2c3ccccc3CCN2C(=O)CC1
0%,Cc1cc(-c2nnc(SCc3cccnc3)o2)no1
-19%,CC1=C(/C=C/C(=C/C=C/C(C)=C/C(=O)O)c2ccc(C)cc2)C(C)(C)CCC1
-6%,Fc1ccc(Sc2ccccc2CNC2=NCCN2)cc1
-4%,O=C(COc1cccc(F)c1)N1c2ccccc2Sc2ccccc21
-2%,COC(=O)C(CC(C)C)NC(=O)C(N)Cc1ccccc1 (configuration not stated)
0%,CC1(C)NC(=O)N(CC(=O)Nc2nc(-c3ccc(F)cc3)cs2)C1=O
0%,Cc1ccc(NC(=O)[C@@H]2CCCN2S(=O)(=O)c2ccccc2C(F)(F)F)cc1S(=O)(=O)N1CCOCC1
-24%,CC(C)(C)c1ccc(C(=O)CC(=O)c2cc(Cl)ccc2O)cc1
-17%,COc1ccc(NC(=S)NC(NC(=O)c2ccccc2Cl)C(Cl)(Cl)Cl)c([N+](=O)[O-])c1 (configuration not stated)
6%,Cc1ccc(NC(=O)NC2CCN(CC(=O)Nc3nccs3)CC2)cc1
-3%,Cc1cccc(N/C(N)=N/c2nc(C)cc(C)n2)c1
-13%,CN1CCC(OC(=O)COc2ccccc2)CC1
-15%,CCCNC(=O)Nc1nccs1
-18%,CCOC(=O)NC(Nc1cc(C)ccn1)(C(F)(F)F)C(F)(F)F
-6%,O=C(CSc1nnc(NC(=O)c2ccccc2Cl)s1)Nc1ccc2c(c1)oc1ccccc12
-18%,COc1ccc(NC(=O)c2cccc(OC(F)F)c2)cc1Cl
-8%,CCCCNC(=O)COC(=O)c1ccc(Cl)c(S(=O)(=O)N2CCCC2)c1
-12%,Cn1c(SCC(=O)NCC2CCCO2)nc2c([nH]c3ccccc32)c1=O (configuration not stated)
-27%,Cc1cc2oc(=O)cc(CSc3nc(N)cc(N)n3)c2cc1C(C)C
-7%,O=C(NC(=S)NCc1ccccc1)C1CCCCC1
-2%&-6%,COc1cc2c(cc1OC)C1Cc3ccc(OC)c(OC)c3CN1CC2 (configuration not stated)
?,Cc1cccc(C)c1NC(=S)Nc1ccccc1C(=O)NCc1ccco1
-12%,O=C(/C=C/c1ccc(Cl)cc1Cl)NCCN1CCOCC1
-14%,O=c1c(Cl)nc2cc(Cl)ccc2n1CCNc1ncc(C(F)(F)F)cc1Cl
-11%,CC(NC(=O)CSc1ncnc2nc[nH]c12)c1ccccc1 (configuration not stated)
-21%,Oc1ccccc1CNc1ncc(Br)cc1Br
-9%,O=C1CC(C(=O)NCc2ccccc2)C2(CCCC2)O1 (configuration not stated)
?,Cc1cc(C)cc(C(=O)NCC(=O)OCc2cc([N+](=O)[O-])cc3c2OCOC3)c1
-8%,COc1ccc(N=C(N(C)C)P(=O)(N(C)C)N(C)C)cc1
-1%,CCOC(=O)Nc1ccc2c(c1)nc(CN1CCOCC1)n2C
0%,Cc1ccc(CN2C(=O)CCC2C(=O)NCCCN2CCC(C)CC2)cc1 (configuration not stated)
18µM*,CC(C)(C)c1ccc(-c2nnc(SCCN3C(=O)c4ccccc4C3=O)o2)cc1
-8%,CCOC(=O)CSc1nnc(CNC(=O)Cc2ccccc2)n1-c1ccccc1OC
-14%,CCOC(=O)Cc1csc(NC(=O)c2ccoc2C)n1
-11%,Cc1ccc(S(=O)(=O)NCC(=O)OCC(=O)N2CCc3ccccc32)cc1
-7%,COCC(=O)NCCc1nc(-c2ccccc2)cs1
?,CC1(C)CC(=O)C2=C(C1)N(CCN1CCOCC1)C1=C(C(=O)CC(C)(C)C1)C2c1cccc(Cl)c1
-12%,O=c1[nH]c2ccccc2n1CCCSc1cnc2ccccc2n1
6%,CCOC(=O)C(C(=O)OCC)C1CS(=O)(=O)CC1C(C(=O)OCC)C(=O)OCC (configuration not stated)
-6%,CCOC(=O)N1CCC(NC(=O)C2CCN(C(=O)N3CCOc4ccccc43)CC2)CC1
-13%,CCOC(=O)C1=C(C)OC(N)=C(C#N)C1c1cc2c(cc1Br)OCO2 (configuration not stated)
?,Cc1c(C(=O)Nc2ccncc2)sc2nc(-c3ccccc3)cn12
-8%,NC1=NC2(CCCCC2)N=C(Nc2ccc(F)cc2F)N1

Other records:
HPGD block,Molecule
-9%,Cc1cc(NC(=O)c2noc3c2CCCC3)nn1Cc1ccc(Cl)cc1
0%,CCOc1ccccc1N1CC(C(=O)N2CCc3ccccc32)CC1=O (configuration not stated)
-1%,CSc1nnc(C)c(=O)n1COC(=O)COc1ccccc1C
-10%,COc1ccc(-c2nn3c(-c4ccccn4)nnc3s2)cc1OC
-7%,C1CN(CC23CC4CC(CC(C4)C2)C3)CCO1
1%,O=C(OCC(=O)N1CCN(C(=O)c2ccco2)CC1)c1ccccc1C(=O)c1ccc(Cl)cc1
-3%,COC(=O)[C@H](C)NC(=O)NC1CCN(Cc2ccccc2)CC1
-23%,COC(=O)c1c(NC(=O)CN2CCN(c3ccccc3Cl)CC2)sc(C)c1C
-11%,Cc1noc(C)c1COc1ccc(C(=O)OCC(=O)c2ccc3c(c2)OCCO3)cc1
-30%,Clc1ccc2[nH]c3c(NCCN4CCOCC4)ncnc3c2c1
-5%,COc1cc(OC)c(C(=O)CCCCN2CCC3(CC2)NC(=O)NC3=O)cc1NS(=O)(=O)c1ccc(C(F)(F)F)cc1
-17%,Cc1cc(Cl)c2ccccc2n1
2%,O=C(COC(=O)c1cccc(S(=O)(=O)N2CCc3ccccc32)c1)NC1CCS(=O)(=O)C1 (configuration not stated)
-5%,COC(=O)c1ccc(Cn2c(C)cc(C)[n+]2C)o1
-16%,CNc1ccc(S(=O)(=O)NCC(=O)OCC(=O)Nc2cccc(Cl)c2Cl)cc1[N+](=O)[O-]
?,CCOc1cc(C2C(C(=O)OC)=CN(C3CCCC3)C=C2C(=O)OC)cc(Br)c1O
-19%,CCOc1cccc(/C=N/NC(=S)Nc2cc(S(=O)(=O)N3CCOCC3)ccc2N2CCOCC2)c1O
?,COC(=O)C(=Cc1cc(Br)c(OC)c(Br)c1)C(=O)OC
-24%,O=C(N1CCCCCC1)N1CCN(C(=O)N2CCCCC2)CC1
-26%,O=C(Nc1nnc(CCc2ccccc2)s1)c1cccs1
-10%,O=C(Cc1cccc2ccccc12)Nc1nc(-c2cccc([N+](=O)[O-])c2)cs1
?,N#CC1=C(O)C(c2ccccc2)n2c1nc(=O)c1ccccc12 (configuration not stated)
-5%,Cc1sc(NC(=O)CCCC(=O)O)c(C#N)c1C

In the list so far, these contain fluorine:
HPGD block,Molecule
-5%,Cc1nn(C)c(N)c1C(O)(c1nccn1C)C(F)(F)F (configuration not stated)
-5%,O=C(CN(C(=O)CSc1nc2ccccc2o1)c1ccccc1F)NC1CCCCC1
?,COCCN1C(=O)C(O)=C(C(C)=O)C1c1ccc(F)cc1 (configuration not stated)
-11%,Cc1nn(Cc2ccccc2)c(C)c1NC(=O)CSc1nc2c(c(C(F)(F)F)n1)CCc1ccccc1-2
22µM*,Cc1ccc(O)c(C(=O)CC(=O)c2cccc(F)c2)c1
-6%,Fc1ccc(Sc2ccccc2CNC2=NCCN2)cc1
-4%,O=C(COc1cccc(F)c1)N1c2ccccc2Sc2ccccc21
0%,CC1(C)NC(=O)N(CC(=O)Nc2nc(-c3ccc(F)cc3)cs2)C1=O
0%,Cc1ccc(NC(=O)[C@@H]2CCCN2S(=O)(=O)c2ccccc2C(F)(F)F)cc1S(=O)(=O)N1CCOCC1
-18%,CCOC(=O)NC(Nc1cc(C)ccn1)(C(F)(F)F)C(F)(F)F
-18%,COc1ccc(NC(=O)c2cccc(OC(F)F)c2)cc1Cl
-14%,O=c1c(Cl)nc2cc(Cl)ccc2n1CCNc1ncc(C(F)(F)F)cc1Cl
-8%,NC1=NC2(CCCCC2)N=C(Nc2ccc(F)cc2F)N1
-5%,COc1cc(OC)c(C(=O)CCCCN2CCC3(CC2)NC(=O)NC3=O)cc1NS(=O)(=O)c1ccc(C(F)(F)F)cc1

From PubChem
